High-throughput results: PubChem BioAssay, National Center for Advancing Translational Sciences (NCATS)
Sfp PPTase inh: Sfp phosphopantetheinyl transferase inhibition. 310,000 compounds, 3.5% hits. Q9F4F7. AID 1490. Biochemical Sfp PPTase activity, qHTS. Potency, µM, for inactives: max response, negative = inhibition, actives largely listed as inhibitors; active means well fitted inhibition curve with a large enough effect; inconclusive means small, poorly fitted or top-dose-only effect, or another doubt; inactive means no such curve, though single readings can be large or run the other way;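 further: the enzyme is Sfp with the accession as filed and its product quenches rhodamine fluorescence; potency means the concentration at half of the fitted maximal effect; 0% = enzyme reaction without inhibitor and -100% = no enzyme wells; top concentration of the series not given in the record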
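Fluorescence-quenching assay: 15 nM Sfp-PPTase preincubated 15 min at room temperature with compound, then 5 uM rhodamine-CoA and 12.5 uM BHQ-2-labelled YbbR peptide added. Fluorescence (ex 525/em 598 nm) read at start and after 30 min; difference gives rate.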
PINK1 modulator: PINK1 expression modulation. 410,000 compounds, 0.2% hits. Potency, µM (doses to about 76.6 µM), for inactives: at the top dose activation (PINK1 increase), hits mostly activators. PINK1 immunofluorescence, high-content cytometry, 24 h; active = well fitted activation curve with a large enough effect; inconclusive = small, poorly fitted or top-dose-only effect; inactive = flat fitted curve, though single readings scatter; cell line not stated here;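 further: potency means the concentration at half of the fitted maximal effect; % of control where 0% means no effect; nearly all actives have a fitted effect of over 65% in size; a mitochondrial uncoupler was the plate control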
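Measures PINK1 amount and localization on or inside mitochondria by immunofluorescence. Stable cells get compounds at 5 concentrations for 24 hours before fixation and staining; CCCP controls included.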
gsp agonist: agonists of gsp mutant (McCune-Albright syndrome); gsp mutant cells, cAMP HTRF, 30 min; control for the full effect not named in the record; Potency, µM (highest dose often 76.9 µM), without a hit: at the highest dose activation (cAMP increase), most hits filed as activators; 340,000 compounds, 0.13% hits; AID 624287; active = well fitted activation curve with a large enough effect; inconclusive = small, poorly fitted or top-dose-only effect, or another doubt; inactive = no such curve, though single readings can be large or run the other way; cell line not stated here;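 further: phosphodiesterase inhibitor Ro 20-1724 added with compounds to block cAMP breakdown; potency means the concentration at half of the fitted maximal effect; nearly all actives have a fitted effect of over 60% in size; about a fifth of the inactives were tested at one dose only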
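Cells stably selected in G418 were plated at 2000/well, grown 16-24 hr, then given compounds in DMSO with the PDE inhibitor […] (300 uM solution added) for 30 min at 37C; cAMP was read by HTRF.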
D2 ag: human D2 receptor agonism in beta-arrestin assay; P14416; DiscoveRx PathHunter D2 beta-arrestin, luminescence, 90 min; 100% = 57 uM dopamine signal; activation, % (concentration not given with the values); 360,000 compounds, 0.084% hits; in the data active = activation above about 40%; inconclusive = about 15% to 40%; inactive = below about 15%; further: the text of the record calls up to 30% inactive
Target sequence (P14416 whole entry, looked up): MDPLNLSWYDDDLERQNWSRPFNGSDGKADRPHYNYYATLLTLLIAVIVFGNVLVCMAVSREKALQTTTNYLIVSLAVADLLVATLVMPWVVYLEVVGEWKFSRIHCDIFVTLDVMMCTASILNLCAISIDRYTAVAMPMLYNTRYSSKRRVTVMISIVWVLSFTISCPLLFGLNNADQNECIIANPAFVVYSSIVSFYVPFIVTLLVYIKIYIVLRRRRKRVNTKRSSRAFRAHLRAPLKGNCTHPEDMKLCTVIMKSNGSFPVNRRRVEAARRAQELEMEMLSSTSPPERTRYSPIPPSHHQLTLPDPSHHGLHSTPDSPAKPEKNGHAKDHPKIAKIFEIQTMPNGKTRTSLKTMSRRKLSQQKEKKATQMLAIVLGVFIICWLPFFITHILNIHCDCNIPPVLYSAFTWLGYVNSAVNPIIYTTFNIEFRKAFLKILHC
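DiscoveRx PathHunter D2 beta-arrestin cells (2,100/well) attached overnight, then compound-stimulated 90 min at 37 C in HBSS/10 mM HEPES/0.1% Tween-20 buffer; beta-galactosidase complementation read by luminescence after 1 h at ambient temperature. Dopamine 57 uM final (EC100) as control.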
Menin MLL FP FL: menin-MLL binding inhibition, fluorescein peptide; Fluorescence polarization, fluorescein-MLL peptide displacement from menin; FP activity change, % at 61.4 µM; 290,000 tested, under 10 active; inconclusive = falling polarisation curve, or a change in total fluorescence; inactive = total fluorescence flat and polarisation flat or rising; no compound was filed as active; the % refers to the polarisation; negative = inhibition;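 further: % of control where 0% means no effect; inhibitors lower the polarisation; unlabelled MLL peptide was the positive control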
gsp antag: gsp mutant antagonism; 340,000 compounds, 0.4% hits; gsp-mutant cells, cAMP HTRF, 30 min; control for the full effect not named in the record; Potency, µM (titrated, usually from 76.9 µM), inactives show at the top dose activity change, negative = inhibition, usual class: inhibitors; active = falling curve of any shape with a large fitted effect; inconclusive = falling curve, mostly with a smaller effect; inactive = flat or rising curve; cell line not stated here;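 further: intracellular cAMP measured with PDE inhibitor Ro 20-1724 present during compound exposure; potency means the concentration at half of the fitted maximal effect; on the % scale 0 is the no-effect control and ±100 the full control effect; nearly all actives have a fitted effect of over 65% in size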
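Measurement of cellular cAMP by homogeneous time-resolved fluorescence following a 30 min compound exposure at 37C. The PDE inhibitor […] was present throughout; the assay buffer was DPBS with 0.05% BSA and 0.005% Tween 20.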
ClpP mod: qHTS Assay for Activators of ClpP; ATP-dependent Clp protease proteolytic subunit (Bacillus subtilis (strain 168)), P80244; purified B. subtilis ClpP, FRET peptide cleavage, 20 min; Potency, µM (doses to about 57.5 µM), inactives show at the highest dose activity change, negative = active; 340,000 compounds, 1.9% hits; active = well fitted falling curve with a large enough effect; inconclusive = small, poorly fitted or top-dose-only effect; inactive = no such curve, though single readings can be large or run the other way; further: potency means the concentration at half of the fitted maximal effect; the source files actives as falling curves though it sought activators and does not explain the sign; nearly all actives have a fitted effect of over 65% in size; many hits overshoot -100%
Target sequence (P80244 whole entry, looked up): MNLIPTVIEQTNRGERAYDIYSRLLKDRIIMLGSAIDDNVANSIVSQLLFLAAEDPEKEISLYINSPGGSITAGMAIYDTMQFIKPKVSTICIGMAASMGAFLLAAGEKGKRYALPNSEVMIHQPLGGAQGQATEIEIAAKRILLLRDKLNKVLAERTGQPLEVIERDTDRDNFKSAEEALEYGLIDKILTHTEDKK
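FRET quenching reversal measured ClpP activation: 10 microg/mL B. subtilis ClpP at pH 8 with the FRET-FV decapeptide, read at 430 nm after 320 nm excitation. The 20-min minus 0-min signal was scaled between DMSO/no-enzyme wells and ADEP (5.8 microM final).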
Numbers without * were called inactive; u = inconclusive; x = no result given; & = joins results of further samples; [ ] = remark or other dose.

entry	Molecule	Sfp PPTase inh	PINK1 modulator	gsp agonist	D2 ag	Menin MLL FP FL	gsp antag	ClpP mod
1	N#C/C(C(=O)NCc1ccco1)=C1/SC(Cc2ccc(Cl)cc2)C(=O)N1c1ccccc1 (stereo unspecified)	40µM*	-1.6%	-2%	-0.4	u	-2%[15.4 µM]	-3.6%
2	CCOC(=O)c1sc(=NC(=O)c2cccs2)n(C)c1C	18%	10%	-10%[15.4 µM]	-1.7	-3.1	-1%	-0.7%
3	Cc1cc(C)n2nc(NCc3cccc(Br)c3)nc2n1	18%	-1.6%	-46%[inhibitor]	-4.1	3.4	24%	14µM*
4	N#C/C(=C\c1cn(-c2ccccc2)nc1-c1cccnc1)c1nnc2n1CCCCC2	5%	-15%[38.3 µM]	27%	-1.4	u	-12%	-7.9%
5	O=C(Nc1ccncc1)c1ccc(Cl)c(S(=O)(=O)N2CCCCC2)c1	x	0.2%	-3%[15.4 µM]	14	x	-1%	0.1%
6	CCN1CCN(C(=O)C2COc3ccccc3O2)CC1 (stereo unspecified)	16%	-0.5%	u	-1.6	x	12%	-3.4%
7	Cn1ccs/c1=N\C(=O)Nc1cccc(C(F)(F)F)c1	2%	0.0%	-24%	5.2	0.5	-1%	-0.6%
8	Fc1ccc(CNc2ccc(CNc3ncn[nH]3)cc2)cc1	6%	2.6%	-30%	-3.0	-1.6	11%	1.6%
9	CCNc1oc(-c2ccc(OC)cc2)nc1S(=O)(=O)c1ccc(Br)cc1	3%	-0.7%[38.3 µM]	u	-1.8	2.2	8%	-5.0%
10	O=C(NC(Cc1ccccc1)C(=O)O)/C(=C\c1ccc(Cl)cc1)NC(=O)c1ccccc1 (stereo unspecified)	22%	2.5%	-7%	2.4	1.1	5%	x
11	COc1ccccc1NC(=O)C(C)OC(=O)CCCc1c[nH]c2ccccc12 (stereo unspecified)	x	0.5%	32%[15.4 µM]	-2.2	x	-11%	x
12	COc1ccc2ccccc2c1CNCCN1CCOCC1	-2%	0.4%	-32%[inhibitor]	1.8	-1.5	-1%	-3.4%
13	NNC(=O)CNc1cccc(Cl)c1	8%	-1.1%	-2%	2.9	-2.2	4%	0.4%
14	COC(=O)c1ccc(COC(=O)CNC(=O)c2ccc(OC)cc2)cc1	x	0.5%	30%	0.0	x	-5%	-6.8%
15	CN(C(=O)c1ccc(NC(=O)Cc2ccc(NC(=O)C3CCN(C(=O)C4CCC4)CC3)cc2)cc1)C1CC1	x	-0.9%	x	0.0	x	3%	-0.3%
16	CC(=O)c1c(C)[nH]c(C(=O)NC(C)c2ccccc2)c1C (stereo unspecified)	9%	2.1%	-91%[inhibitor]	-2.8	0.4	-22%	-0.5%
17	Cc1nnc(CN(C)C(=O)c2cc(COc3ccc(C)c(C)c3)on2)o1	6%	-0.5%	12%	-0.1	x	-3%	-0.2%
18	Cc1noc(C)c1COc1ccccc1C(=O)NNC(=O)C(C)Oc1ccccc1F (stereo unspecified)	x	-0.4%	2%[15.4 µM]	-7.2	x	-4%	-2.6%
19	Cc1cc(C)c(S(=O)(=O)NC(CC(=O)O)c2cccc([N+](=O)[O-])c2)c(C)c1 (stereo unspecified)	7%	1.8%	-3%[15.4 µM]	-5.1	-1.7	-5%	x
20	CC(O)(C#CCN1CCCCCC1)c1ccccc1 (stereo unspecified)	6%	1.9%	23%[15.4 µM]	2.8	4.1	0%	x
21	CCOC(=O)c1ccccc1NC(=O)N1CCn2c(C)ccc2C1CC (stereo unspecified)	-3%	0.5%	-8%	-3.0	u	-6%	u
22	CCCNC(=O)C(Sc1ccccc1)c1ccccc1 (stereo unspecified)	12%	-2.0%	2%[15.4 µM]	-1.2	1.8	2%	0.5%
23	C/C(Cc1ccccc1)=N\NC(=O)CNC(=O)COc1cccc(C)c1	8%	-1.2%	7%	-4.2	0.2	-2%	-1.7%
24	O=C(NCCc1c[nH]c2ccccc12)C1CCN(S(=O)(=O)c2ccc(F)cc2)CC1	6%	-0.3%	-22%[15.4 µM]	3.3	-0.5	-9%	x
25	COc1ccc(OC)c(N(CC(=O)N2CCCC2)S(C)(=O)=O)c1	17%	0.0%	-28%	11	3.6	6%	-1.4%
26	Cc1cccc(C)c1NC(=O)CSc1nnc(-c2ccoc2C)n1CCc1ccccc1	6%	-0.4%	-14%	-1.0	2.2	0%	0.3%
27	Nc1nc(SCC(=O)N2CCN(c3ccccc3)CC2)n[nH]1	4%	-1.0%	-1%	-4.3	x	8%	1.6%
28	CCCC(CCC)C(=O)NNc1cc(=O)c2c(=O)n(C)c(=O)n(C)c2[nH]1	20%	u	u	6.2	4.2	-16%	-4.1%
29	COc1ccccc1OCC(=O)Nc1oc(-c2ccccc2)c(-c2ccccc2)c1C#N	19%	13%	-21%	0.6	-1.5	-16%	u
30	CCOC(=O)C1=C(C)NC2=C(C(=O)c3ccccc32)C1c1cccnc1 (stereo unspecified)	4%	5.6%	18%	-1.3	-1.8	3%	0.3%
31	COc1ccc(-c2cn3cccnc3n2)cc1NC(=O)C1CCCC1	10%	0.4%[38.3 µM]	-4%	-0.3	-0.1	-2%	u
32	Cc1nc(SCC(=O)O)c(C#N)c2c1CCCC2	-4%	0.7%	6%	u	2.4	-3%	-7.7%
33	O=C(COc1cccnc1[N+](=O)[O-])N1N=C(c2ccc(Cl)cc2)CC1c1ccco1 (stereo unspecified)	u	4.6%	17%	3.9	1.8	-9%	x
34	Cc1cccc(N2N=C(C(=O)OCC(=O)c3ccccc3)CCC2=O)c1	x	0.1%	2%[15.4 µM]	-5.5	x	-2%	-2.4%
35	C#CCNc1c2c(nc3nnnn13)CCCC2	11%	0.5%	u	-0.8	0.7	3%	0.8%
36	COc1ccc(-c2cc(C(=O)Nc3ccccc3O)c3ccccc3n2)cc1OC	6%	3.6%	-28%	-2.3	0.4	3%	x
37	CCCOc1ccc(/C=N/NC(=O)CSCc2ccc([N+](=O)[O-])cc2)cc1OCC	6%	4.7%	4%	0.7	0.8	-8%	0.2%
38	CN(Cc1cccs1)C(=O)CSc1nnnn1C	4%	2.1%	-6%	-4.1	-5.4	7%	1.6%
39	Cc1c(C(=O)N2c3ccccc3CC2C)oc2ccccc12 (stereo unspecified)	-13%	0.7%	-44%	-5.8	x	7%	1.3%
40	O=C(c1cccc([N+](=O)[O-])c1)n1nc(-c2ccccc2)nc1NCc1ccccc1	3%	1.9%	12%[15.4 µM]	-4.6	1.9	-20%	-9.0%
41	N#Cc1ccc(-c2nc3ccc(Br)cn3c2Cc2cccc(F)c2)cc1	x	1.7%	x	-6.4	x	x	-16%
42	Cc1ccc2cc(CN(Cc3ccc4c(c3)OCO4)Cc3nnnn3Cc3ccco3)c(=O)[nH]c2c1C	22µM*	0.0%	-96%[inhibitor]	-4.4	u	-4%	-17%
43	COc1cc2c(cc1OC)CN(S(=O)(=O)c1ccccc1F)CC2	-11%	3.2%	-9%	2.3	0.6	1%	-1.3%
44	O=C(NCC(=O)N(Cc1ccc(F)cc1)C(C(=O)NC1CCCC1)c1ccco1)c1ccco1 (stereo unspecified)	13%	0.2%	3%	0.4	1.9	7%	0.4%
45	Cc1nc(CSc2ccc(Br)cc2)cs1	2%	3.8%	-10%	4.1	2.8	-5%	x
46	O=C(O)c1cc(S(=O)(=O)NC2CCCc3ccccc32)ccc1O (stereo unspecified)	15%	3.1%	21%[15.4 µM]	-3.0	-0.5	2%	x
47	CCC1(c2ccccc2)C(=O)N=C(N)N(C#N)C1=O (stereo unspecified)	x	-0.7%	14%	0.4	x	10%	-12%
48	CCOc1cnn(-c2cc(Oc3ccc(C)cc3)ncn2)c(=O)c1Cl	0%	2.2%	-1%	-2.2	-1.6	3%	1.9%
49	Cc1ccc(O)c(Nc2ncnc3ccccc23)c1	2%	-0.6%	0%	2.4	5.3	-1%	x
50	CCc1ccccc1NC(=O)CN1CCN(C(=O)c2ccc(OCc3cn4ccccc4n3)cc2)CC1	x	1.5%	-50%[inhibitor]	-4.2	x	-27%	u
51	O=C(C1CCN(S(=O)(=O)c2cccs2)CC1)N1CCN(Cc2ccccc2)CC1	24%	0.0%	2%	-8.5	-4.7	-3%	-0.2%
52	CC(C)(C)OC(=O)NC1CC2CCCC(C1)N2Cc1ccccc1 (stereo unspecified)	18%	4.0%	-2%[15.4 µM]	-3.5	0.7	20%	1.0%
53	Cc1cc(NS(=O)(=O)c2ccc(NC(=O)Cc3ccc([N+](=O)[O-])cc3)cc2)nc(C)n1	x	-1.8%	10%	4.6	x	-7%	0.8%
54	CCOc1ccc(CCNC(=O)c2ccc(CS(=O)Cc3ccc(Cl)cc3)o2)cc1 (stereo unspecified)	2%	1.2%&-0.1%	-23%	-2.1	x	u	-0.8%&1.4%
55	O=S(=O)(c1ccc(-c2n[nH]c(=S)o2)cc1)N1CCCCC1	-44%	0.6%	-1%[15.4 µM]	-2.2	x	-26%	x
56	CCOC(=O)C1CCN(C(=O)COc2cc(C)c(Br)c(C)c2)CC1	8%	2.7%	0%	-0.9	4.9	-14%	-1.3%
57	Cc1nn2c(-c3ccccc3)ccnc2c1Br	12%	3.4%	-8%	4.0	6.2	-3%	0.8%
58	O=[N+]([O-])c1ccc2c(c1)C=C1CCCCC1(N1CCCCC1)O2 (stereo unspecified)	4%	5.4%	u	-1.2	1.6	9%	-2.1%
